MgrA DNA FP: modulators of Staphylococcus aureus MgrA DNA binding | fluorescence polarization | inhibition, %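 (about 10 µg/mL by stock and volumes)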 | 84,000 tested, 0.13% active;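 active = above 50% in either of two replicates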;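 note: 0% = protein plus DNA without compound and 100% = DNA alone without protein; higher means less MgrA bound to DNA so lower polarization; one replicate is shown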
Sa helicase inh: S. aureus DNA helicase inhibition | purified S. aureus helicase, fluorescence unwinding assay; about half of the hits fall short of the stated cut | 120,000 tested, 0.05% active | inhibition, %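 (tested at about 80 µM)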;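 active = both duplicates at 50% or more, or one of them with a favoured structure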;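 note: 0% = mean of negative control wells and 100% = mean of positive control wells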
* = called active by the depositor; · = not tested or not shown. The list is partial, so the mix of outcomes need not match the whole.

Values run as follows: MgrA DNA FP, Sa helicase inh
> COc1ccc(OC)c(CCNC(=O)Cn2ncc3c(=O)oc4ccc(C)cc4c32)c1
    ·, 15
> CCN(Cc1ccncc1)C(=O)c1ccc(Cl)c(Cl)c1
    0.2, 13
> Cc1cc(OCC(=O)O)no1
    ·, 20
> CN1C(=O)c2ccccc2N2C(=O)CCC12C(=O)OCN1C(=O)c2ccccc2C1=O (stereo unspecified)
    ·, 11
> O=C1c2ccccc2OCC1c1ccccc1 (stereo unspecified)
    0.4, ·
> O=C(O)CCn1c(-c2ccc(F)cc2)n[nH]c1=S
    ·, 2
> CCOC(=O)c1sc(NC(=O)c2cc3n(n2)C(C(F)(F)F)CC(c2cccs2)N3)c(C(=O)OCC)c1C (stereo unspecified)
    4.0, ·
> COCc1cc(=O)[nH]c(/N=C(\N)Nc2ccc(F)cc2)n1
    ·, -4
> N#C/C(=C/c1cccs1)C(=O)O
    -5.3, -5
> N#Cc1ccc(OCc2ccc(Cl)nc2)cc1
    -1.2, ·
> Cc1ccc(C)c(/C(O)=C2/C(=O)C(=O)N(CCc3ccccc3)C2c2ccc(O)cc2)c1 (stereo unspecified)
    ·, -6
> CN(C)C(=O)COC(=O)c1cc2ccccc2oc1=O
    ·, -14
> COC(=O)c1ccc(-c2csnn2)cc1
    -1.7, ·
> Cc1oc(C(C)(C)C)cc1C(=O)NCc1ccc(C(=O)O)o1
    -2.8, 6
> COc1ccccc1-c1cc(C(F)(F)F)nc(NCc2ccco2)n1
    2.2, 16
> CC(C(=O)NC1CC1)N1CCC(N2CCCCC2)CC1 (stereo unspecified)
    16, 2
> COCCn1c(C)cc(C(=O)CSc2ncnc3sc(C)c(C)c23)c1C
    ·, 5
> CC(=O)NC(c1ccccc1)c1cccnc1 (stereo unspecified)
    -0.9, 7
> CCN(CC)c1ccc(C(=O)c2ccccc2C)cc1
    17, -1
> CCCCNC(=O)Nc1cc(C(F)(F)F)c[nH]c1=O
    ·, -7
> c1ccc(Nc2ccccn2)cc1
    -1.0, -19
> CC(C)NC(=O)CCSc1nc(-c2ccco2)cc(C(F)(F)F)n1
    ·, -14
> O=C(/C=C/C=C/c1ccco1)c1ccccc1
    20, ·
> NCC1CCCCC1CC(=O)O (stereo unspecified)
    0.7, ·
> O=C(O)/C=C/C(=O)Nc1cn(-c2ccccc2)nc1-c1ccccc1
    ·, -6
> O=C(c1ccco1)N1CCN(C(=O)N2c3ccccc3Sc3ccccc32)CC1
    -3.0, 4
> COc1ccc(C2=NOC(C(=O)N3CCCc4ccccc43)C2)cc1 (stereo unspecified)
    ·, 3
> O=C(OCCN1C(=O)c2cccc3c(N4CCCCC4)ccc(c23)C1=O)c1ccc([N+](=O)[O-])cc1
    -1.6, ·
> CC(=O)Oc1ccc(N2C(=O)CCC2=O)cc1
    -0.3, -15
> CCOC(=O)C1=C(c2ccc(OC)cc2)NC(=O)NC1c1ccc(OC)cc1 (stereo unspecified)
    4.3, 13

Copied from the results shown, 3 compounds:
Values run as follows: MgrA DNA FP, Sa helicase inh
> CC(C)NC(=O)CCSc1nc(-c2ccco2)cc(C(F)(F)F)n1
    ·, -14
> O=C(/C=C/C=C/c1ccco1)c1ccccc1
    20, ·
> NCC1CCCCC1CC(=O)O (stereo unspecified)
    0.7, ·

Remaining list, next part.
Values run as follows: MgrA DNA FP, Sa helicase inh
> COc1c[nH]n(C(C)(C)C)c(=O)c1=O
    1.5, -11
> CCN(CC)C(=O)N(C)Cc1ccccc1
    6.1, 7
> Cc1ccc(S(=O)(=O)N(C)c2ccccc2C(=O)N2CCCC2)cc1
    0.7, -9
> COc1cccc(-n2cc(C(=O)NC(C)C)c3ccccc3c2=O)c1
    2.2, 15
> O=C(CSc1nc2cc(Cl)ccc2o1)NC1CCCC1
    -1.2, 9
> COc1ccc2c(c1)CCC1C2=NN(C(C)=O)C1c1ccccc1 (stereo unspecified)
    0.3, 14
> COc1cccc(C(=O)Nc2c(C)n[nH]c2C)c1
    1.2, 12
> COc1ccccc1OCCn1cc(/C=C2\Cc3ccccc3C2=O)c2ccccc21
    0.8, -15
> N#CC1=C(N)C(C#N)(C#N)C(c2cccs2)C2CN(C(=O)OCc3ccccc3)CC=C12 (stereo unspecified)
    -1.2, 12
> Cc1cccn(Cc2c(F)cccc2Cl)c1=O
    -0.2, ·
> CCOc1ccc(CCl)cc1OCC
    -1.2, -24
> CSc1nc2ccc(N3C(=O)c4ccccc4C3=O)cc2s1
    ·, 8
> O=C(COc1ccc(C2=Nc3ccccc3NC(c3ccccc3)C2)cc1)Nc1ccccc1 (stereo unspecified)
    1.1, ·
> CCCN(CC(=O)Nc1cc(C)on1)CC(=O)Nc1ccccc1C
    ·, 4
> N=c1n(CCN2CCCCC2)c2ccccc2n1CC(O)c1ccc2c(c1)OCO2 (stereo unspecified)
    -3.2, 6
> O=C(O)CNC(=O)CCN1C(=O)c2ccccc2C1=O
    ·, -12
> Cc1cc2c([nH]c3ccccc32)c(C)n1
    11, 26
> O=C(O)CSc1ncc(C(F)(F)F)cc1Cl
    -1.0, ·
> Cc1nc(N(C)C2CCCCC2)c2nnn(Cc3ccc(F)cc3)c2n1
    0.7, 2
> CCOc1ccc(-n2cc(C(=O)NCCOC)c3cc(OC)c(OC)cc3c2=O)cc1
    ·, -33
> CCOc1ccccc1NC(=O)CNc1cc(F)ccc1C
    ·, -17
> CC(C)(C)NC(=O)NC(=O)CN1CCc2ccccc21
    ·, -5
> O=C(/C=C/c1c[nH]c2ccccc12)N1CCCCC1
    1.7, 6
> O=C(NN=C1CCCCC1)c1cccc(N2CCCC2=O)c1
    4.8, 7
> CCN(CC)c1ccc(C(=O)Nn2c(-c3cc(OC)c(OC)c(OC)c3)nc3ccccc3c2=O)cc1
    0.3, ·
> O=C(Nc1cccnc1)c1cnn(-c2ccccc2)c1-n1cccc1
    ·, -27
> CC1(C)CC(=O)C2=C(C1)Nc1ccccc1N(C(=S)Nc1ccccc1)C2c1ccco1 (stereo unspecified)
    2.8, -1
> CCOc1ccc(S(=O)(=O)N2CCc3ccccc3C2CC(=O)Nc2nnc(C)s2)cc1 (stereo unspecified)
    ·, 7
> N#Cc1sc2nnc(-c3ccncc3)n2c1N
    3.1, ·
> CC(C)C(CO)NC(=O)Oc1ccccc1 (stereo unspecified)
    ·, 8
> COC(=O)c1sccc1NC(=O)CC(=O)Nc1ccsc1C(=O)OC
    0.2, ·
> Cc1ccnn1CCN
    3.8, 4
> c1ccc(COc2ccc(CNCc3cccnc3)cc2)cc1
    ·, -4
> CCn1c(O)c(C=Nc2ccc(OC)cc2)c(=O)n(CC)c1=S
    ·, -19
> O=C(NCc1cccnc1)c1cccc2sc(N3CCCc4ccccc43)nc12
    12, 11
> COc1cc(NC(=O)c2cccc(Br)c2)nc(OC)n1
    -1.5, -1
> CCCCn1c(=O)[nH]c(=O)c2c1nc(COC(=O)C1(Cc3nc4ccccc4s3)CCCC1)n2C
    ·, 0
> COC(=O)c1cc(NC2c3ccccc3C(=O)N2Cc2ccco2)cc(C(=O)OC)c1 (stereo unspecified)
    ·, -23
> O=C(NCCc1ccccc1)c1ccc(CS(=O)(=O)Cc2ccccc2F)o1
    -0.5, 2
> CC(=O)Nc1cccc(-c2cc(-c3c(Cl)cccc3Cl)no2)c1
    -2.5, ·
> CC[N+](C)(CC)CCOC(=O)C1c2ccccc2Oc2ccccc21
    1.0, ·
> O=C(c1ccc(C#Cc2ccccc2)o1)N1CCCC1
    -1.9, ·
> COc1cccc(NC(C)C(=O)Nc2ccc(NC(C)=O)cc2)c1 (stereo unspecified)
    ·, 7
> COc1ccc(-c2ncncc2-c2csc(C)n2)c(O)c1OC
    ·, -20
> CC(=O)Nc1sc(=Nc2ccc(C)c(C)c2)n(C(C)=O)c1-c1ccc2c(c1)OCO2
    1.4, ·
> CC(C)(C)c1cc(Cc2ccc(O)c(O)c2)cc(C(C)(C)C)c1O
    ·, 9
> COc1cc(CNc2ccccc2)cc(OC)c1OC
    -1.6, 1
> Cn1c2ccccc2c2c(C(=O)N3CCN(c4ccccc4)CC3)cn(C3CCCCC3)c(=O)c21
    ·, 27
> O=C(c1ccc(CSc2nc3ccncc3n2Cc2ccc(F)cc2)cc1)N1CCCC1
    ·, 8
> CC1(C)CC(N2NC(=O)C(Cc3ccccc3)C2=O)CCS1 (stereo unspecified)
    ·, -1
> O=S(=O)(c1ccc(F)cc1)N1CCc2ccccc21
    ·, -17
> CC(C)=CCCC(C)CN1CCN(c2ccc(Cl)cc2)CC1 (stereo unspecified)
    -3.8, 7
> COC(=O)c1cc(-c2cc(OC)c(OC)c(OC)c2)no1
    4.3, 2
> CN(C(=O)c1oc(=O)c2ccccc2c1-c1ccccc1)c1ccccc1
    1.0, 11
> FC(F)(F)c1nc2ccc(Cl)cc2[nH]1
    1.3, 6
> O=S(=O)(CCSc1nccc(-c2ccc(Cl)cc2)n1)c1ccccc1
    3.0, ·
> COC1CC2C(=O)OC(C(=O)O)C2C(OC)C1OC (stereo unspecified)
    -2.9, 6
> S=c1nccc(-c2cc(-c3ccccc3)no2)[nH]1
    ·, -59
> Cc1ccnc(SCC(=O)Nc2ccccc2)n1
    -0.8, 10
> COC(=O)c1sccc1-c1ccc(-c2ccn(C(=O)c3cccs3)n2)o1
    -1.1, ·

Given as labelled records: 2 of the compounds above.
Molecule: CC(C(=O)NC1CC1)N1CCC(N2CCCCC2)CC1 (stereo unspecified)
  MgrA DNA FP: 16
  Sa helicase inh: 2

Molecule: COCCn1c(C)cc(C(=O)CSc2ncnc3sc(C)c(C)c23)c1C
  MgrA DNA FP: ·
  Sa helicase inh: 5

More entries:
Values run as follows: MgrA DNA FP, Sa helicase inh
> Nc1c(C(=O)Nc2ccccc2)sc2sc(C(=O)Nc3ccccc3)c(N)c12
    -0.6, 16
> FC(F)(F)c1cccc(-c2noc(-c3ccsc3)n2)c1
    0.4, ·
> COC(=O)c1c(-c2ccccc2)csc1N
    6.5, 10
> CCOC(=O)OC(C)OC(=O)[C@@H]1N2C(=O)[C@@H](NC(=O)[C@H](N)c3ccccc3)[C@H]2SC1(C)C (stereo partly specified)
    2.4, ·
> FC(F)(F)c1cccc(NC(=S)N2CCCc3ccccc32)c1
    9.1, ·
> COC(=O)c1ccc(COC(=O)c2csc3c2CCCC3)o1
    ·, 6
> CC1CCc2c(sc3c2C2=NS(=O)(=O)CCN2C=N3)C1 (stereo unspecified)
    ·, -8
> CN(S(=O)(=O)c1ccc(F)cc1)S(=O)(=O)c1ccc(Cl)cc1
    -1.1, ·
> O=C(NCc1ccco1)C1CC1(c1ccccc1)c1ccccc1 (stereo unspecified)
    3.1, 22
> COc1ccc2cc3cc(C(=O)NCc4cc(Br)ccc4OC)oc3nc2c1
    ·, -30
> COc1ccccc1C(=O)Nc1cccc(-c2csc(-c3ccccc3)n2)c1
    0.4, 13
> CCOC(=O)c1oc2ccccc2c1CN1CCN(C(=O)c2ccccc2)CC1
    -1.8, 5
> CCCc1cc2c(=O)c(-c3ccccn3)coc2cc1O
    ·, -9
> C=C(C)CNC(=S)Nc1cc(Cl)ccc1Sc1nncn1C
    ·, 8
> COc1ccc(C2CC(=O)NC(NC(=S)NC(C)C)=N2)cc1 (stereo unspecified)
    ·, 15
> O=C(Cn1ccn(-c2ccccc2)c(=O)c1=O)Nc1ccccc1
    1.5, 2
> O=C(O)C1CC=C(Cl)CC1C(=O)NCC1OCCc2ccccc21 (stereo unspecified)
    ·, 6
> O=C(CSc1nccc(C(F)(F)F)n1)c1cccnc1
    -0.3, ·
> CC(C)COC(=O)N1CCCC1C(=O)O (stereo unspecified)
    1.2, 10
> Cc1cc(S(=O)(=O)N2CCOCC2)ccc1F
    ·, 0
> Cc1nnsc1-c1nc2cccc(C)c2c(=O)o1
    -1.6, ·
> CC1CC(CC(C)C(=O)NC(=S)Nc2ccc(S(N)(=O)=O)cc2)C(=O)O1 (stereo unspecified)
    ·, -22
> COc1ccc2ncc(S(=O)(=O)c3ccccc3)c(N3CCC4(CC3)OCCO4)c2c1
    ·, 9
> CCC1CCCCN1C(=O)COC(=O)/C=C/c1cc(OC)c(OC)c(OC)c1 (stereo unspecified)
    ·, 12
> CCCc1nc2nc(C)c(NS(=O)(=O)Cc3ccccc3)c(=O)n2[nH]1
    ·, -25
> O=C1C=CC(=NSc2ccccc2)C=C1
    ·, -4
> O=C1CCCN1CC(O)CN1CCN(c2nc3ccc(Cl)cc3s2)CC1 (stereo unspecified)
    -1.5, ·
> CC1CCCC(NC(=O)CNC(=S)N(Cc2ccc(F)cc2)C2CCCCC2)C1C (stereo unspecified)
    1.4, 7
> CCN1C(=O)c2ccccc2Sc2ccc(NC(=O)NCc3ccccc3)cc21
    0.8, 1
> Cc1cc(C(=O)OCc2cc(=O)oc3cc4c(cc23)CCC4)c(C)o1
    ·, 2
> CCC(=O)N(C(=O)CC)c1cc2oc3ccccc3c2cc1OC
    -4.6, 9
> CN(C)S(=O)(=O)c1ccc(SCC(=O)N2CC(=O)Nc3ccccc32)nc1
    ·, 8
> CCNC(=O)c1cc2sccc2n1Cc1ccccc1
    -2.7, 8
> CCCCC(CC)CNc1ncnc2c1oc1ccccc12 (stereo unspecified)
    ·, -9
> COCc1cc(=O)[nH]c(/N=C(\N)Nc2ccccc2)n1
    -0.5, 13
> O=C(/C=C/c1ccccc1)Nc1c2c(nn1-c1ccccc1)CSC2
    ·, 12
> CCCc1ccc(S(=O)(=O)NCC2CCCN2CC)cc1 (stereo unspecified)
    ·, 1
> c1ccc(C2Nc3ccccc3-n3cccc32)nc1 (stereo unspecified)
    0.3, ·
> CCn1ncc(C2=NOC(C(=O)O)C2)c1C (stereo unspecified)
    -0.8, 4

In a second layout: results already given
Compound	MgrA DNA FP	Sa helicase inh
CCOc1ccc(CCl)cc1OCC	-1.2	-24
CSc1nc2ccc(N3C(=O)c4ccccc4C3=O)cc2s1	·	8
O=C(COc1ccc(C2=Nc3ccccc3NC(c3ccccc3)C2)cc1)Nc1ccccc1 (stereo unspecified)	1.1	·
CCCN(CC(=O)Nc1cc(C)on1)CC(=O)Nc1ccccc1C	·	4
N=c1n(CCN2CCCCC2)c2ccccc2n1CC(O)c1ccc2c(c1)OCO2 (stereo unspecified)	-3.2	6
O=C(O)CNC(=O)CCN1C(=O)c2ccccc2C1=O	·	-12
Cc1cc2c([nH]c3ccccc32)c(C)n1	11	26
